HSD17B inhib = HSD17B dehydrogenase inhibition | Q99714 | Potency, µM (top dose mostly 57.1 µM), without a hit: at the highest dose activity change, negative = inhibition, most hits filed as inhibitors | AID 893 | 75,000 compounds, 7.6% hits | recombinant HSD17B10, NADH fluorescence kinetic; many of its hits are not listed in these tables; active = well fitted inhibition curve with a large enough effect; inconclusive = small, poorly fitted or top-dose-only effect; inactive = no such curve, though single readings can be large or run the other way;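 also: the protocol describes HADH2 (HSD17B10) and not the HSD17B4 of the title; nearly all actives have a fitted effect of over 70% in size; most hits overshoot -100% by far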
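20 nM HADH2, pH 9.0 Tris/Tween; cpd preinc 15 min RT; start w/ 1 mM NAD+ + 90 uM b-hydroxybutyryl-CoA; kinetic fluor ex360/em450 q30s x 4 min; delta last-first.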
Active calls of the source: *; ? = inconclusive; & = joins results of further samples; [ ] = dose if it differs, or a comment. % is scaled to controls: 0 for no effect and ±100 for the full control effect; potency is read from the fitted curve at half-maximal effect. This is a subset; the hit share may differ from the screen's.

Start of the listing, in advance, 6 compounds:
compound	HSD17B inhib
Cc1cc(NC(=O)CC23CC4CC(C2)CC(CC(=O)Nc2cc(C)on2)(C4)C3)no1	-1%
COc1ccccc1NC(=O)CCSc1nnnn1C	-1%
Cc1cccc(NC(=O)CSc2nnc(-c3ccncc3)n2C)c1	7%
O=C1c2ccccc2C(=O)N1C[C@]1(C(=O)O)NCCS1(=O)=O	2%[11.4 µM]
C=C[C@@](C)(O)CC[C@@H]1[C@@]2(C)CCCC(C)(C)[C@@H]2CC[C@@]1(C)O	-7%
COc1cc(-c2nc(-c3ccc(NC(=O)c4ccc5c(c4)OCO5)cc3)no2)cc(OC)c1OC	?

The whole of this part, previewed entries included:
compound	HSD17B inhib
Cc1cc(NC(=O)CC23CC4CC(C2)CC(CC(=O)Nc2cc(C)on2)(C4)C3)no1	-1%
COc1ccccc1NC(=O)CCSc1nnnn1C	-1%
Cc1cccc(NC(=O)CSc2nnc(-c3ccncc3)n2C)c1	7%
O=C1c2ccccc2C(=O)N1C[C@]1(C(=O)O)NCCS1(=O)=O	2%[11.4 µM]
C=C[C@@](C)(O)CC[C@@H]1[C@@]2(C)CCCC(C)(C)[C@@H]2CC[C@@]1(C)O	-7%
COc1cc(-c2nc(-c3ccc(NC(=O)c4ccc5c(c4)OCO5)cc3)no2)cc(OC)c1OC	?
O=C(O)/C=C\C(=O)Nc1cccc2c1-c1ccccc1C2=O	-9%[11.4 µM]
CCCOc1ccc(N2C(=O)CC(N3CCC(C(=O)OCC)CC3)C2=O)cc1 (centres undefined)	-5%
Cc1ccccc1-c1nc(-c2cccnc2)no1	5%
COc1ccc(OCc2nc(N)nc(Nc3cccc(C)c3C)n2)cc1	-5%
O=C1CC(c2ccccc2)n2nc(NC(=O)c3cccnc3)nc2N1 (centres undefined)	12%
COC(=O)CSc1nnc(-c2ccccc2O)n1-c1ccc(C)cc1	3%
Cc1ccc(S(=O)(=O)Nc2nc3ccccc3nc2NCc2ccco2)cc1	32µM*
COc1ccc(S(=O)(=O)N(CCc2ccccc2)CC(=O)O)cc1OC	10%
CN(C)C=Nc1nonc1-c1ncn[nH]1	7%
Cc1cccc(C(=O)Nc2ncc(CN3CCOCC3)s2)c1	3%
CCOCCCNC(=O)C(c1ccc(C)cc1)N(Cc1ccc2c(c1)OCO2)C(=O)CNC(C)=O (centres undefined)	19%
Cc1ccc(S(=O)(=O)CCc2nnc(NC(=O)c3ccccn3)s2)cc1	-1%
O=C(OCCCC(=O)N1CCOCC1)c1ccccc1	5%
COc1ccc(C(=O)COc2ccc(NC(C)=O)cc2)cc1	-13%
Cc1ccccc1Cn1cc(NC(=O)c2cc(-c3cccs3)on2)cn1	?
CS(=O)(=O)N(CC(N)=O)c1ccc2c(c1)OCO2	-7%
O=C(Cn1cccc1C(=O)c1ccccc1)NCc1ccco1	2%
COCCOC(=O)C(C#N)c1nc2ccccc2nc1N1CCCC1 (centres undefined)	25µM*
CCC(C(=O)NC1CCCC1)N(Cc1ccco1)C(=O)Cn1nnc(-c2ccc(C)cc2)n1 (centres undefined)	1%
CCCc1oc2c(c(=O)c1CC)C(=O)CC(C)(C)C2	3%
FC(F)(F)C1CC(c2cccs2)Nc2ncnn21 (centres undefined)	3%
CC(=O)NCC(=O)OCC(=O)c1ccc(C)cc1	2%
COc1ccc(S(=O)(=O)NCC(=O)N(CC(=O)NCC2CCCO2)c2c(C)cccc2C)cc1 (centres undefined)	-4%
CCOc1cc(CNC(=O)CN2C(=O)c3ccccc3S2(=O)=O)ccc1OC	3%
COc1cccc2cc(C(C)N(CCCN3CCOCC3)C(=O)Nc3ccc(Cl)cc3)oc12 (centres undefined)	0%
CC(O)Cc1nsc(NC(=O)c2ccc(Br)o2)n1 (centres undefined)	-16%
O=C(CN(Cc1ccco1)C(=O)CNS(=O)(=O)c1ccccc1)NC1CCCCC1	22%
Cc1ccc(-n2nnc3c(=O)n(CC(=O)N4CCCC4)cnc32)cc1	-2%
COC(=O)c1cc2ccsc2n1CC(=O)N1CCCc2ccccc21	-3%
O=C(OC1Cc2c(O)cc(O)cc2OC1c1cc(O)c(O)c(O)c1-c1c(C2Oc3cc(O)cc(O)c3CC2O)cc(O)c(O)c1O)c1cc(O)c(O)c(O)c1 (centres undefined)	5µM*
Cc1cc2cc(CCNC(=O)c3ccc(Br)o3)c(=O)[nH]c2cc1C	?
O=C(CSc1ncn(-c2ccccc2)n1)Nc1nc2ccccc2s1	-21%
c1ccc(-n2nnnc2-n2ccnc2)cc1	3%
O=C(c1cc(C(F)(F)F)cc(C(F)(F)F)c1)N1CCC[C@@]2(CCN(c3ccccn3)C2)C1	-11%
Cc1ccc(C)c(N2CCN(CC(=O)Nc3ccc4[nH]c(=O)[nH]c4c3)CC2)c1	2%
Cc1cc(C)cc(NC(=O)C2CCN(c3nccs3)CC2)c1	3%
CN(C)S(=O)(=O)c1cc(S(=O)(=O)N(C)C)c(Cl)cc1N	5%
NC(=O)c1sc2nc(N3CCCCC3)c3c(c2c1N)CCCC3	25µM*
O=C(C1CCN(c2nnnn2-c2ccccc2)CC1)N1CCN(c2ccccc2)CC1	1%
CCCCC(=O)Nc1ccc(NC(=O)c2cccnc2)cn1	6%
COC(=O)N1CCC2(CC1)CN(c1ccncc1)C2	6%
Brc1cccc(C2CC(c3ccccc3)n3nnnc3N2)c1 (centres undefined)	2%
Cc1ccc2c(c1)CCCN2C(=O)c1ccoc1C	1%
CCCCCCN(C(=O)CCCCCN1C(=O)NC(c2ccc(C(C)(C)C)cc2)C(C(=O)OCc2ccccc2)=C1C)C(C(=O)NCCCC)c1ccc(OCC(=O)OC)c(C(=O)OC)c1 (centres undefined)	0%
Cc1cc(Nc2c(C)cccc2C)n2nc(C)nc2n1	8%
COc1ccc(-c2nc(N)ncc2-c2csc(C)n2)c(O)c1	5%
O=S1(=O)CC(O)C(NCc2ccco2)C1 (centres undefined)	12%
Cn1c(=O)[nH]c(=O)c2c1nc(CN1CCN(c3ccccc3F)CC1)n2CC(N)=O	-13%
COc1ccc(C(=O)N2CCC3(CC2)CN(c2ccncc2)C3)cc1	6%
CC(=O)Nc1cccc(NC(=O)CSc2nnnn2C(C)C)c1	4%
CN(C)c1nc(N)nc(-c2nc3ccccc3s2)n1	?
CCOC(=O)N1CCN(C2CC(=O)N(c3ccccc3)C2=O)CC1 (centres undefined)	1%
Cc1cccc(-c2c3c(=O)n(C)c(=O)n(C)c3c3c(C)cc(C)nn23)c1	9%
CC(=O)N1CCCc2cc(S(=O)(=O)N(CC(C)C)CC(C)C)ccc21	9%

Going on with the list.
compound	HSD17B inhib
CC(=O)OC1CCC23CC1(C)CCC2C(C)(C)CC3OC(C)=O (centres undefined)	-7%
O=C(NCCN1CCCCC1)c1ccc(-n2c(=O)c(=O)[nH]c3ccccc32)cc1	5%
CSc1nnnn1-c1cccc(O)c1	4%
Cc1ccccc1CS(=O)(=O)Cc1ccc(C(=O)NCCCN2CCCC2=O)o1	4%
c1ccc(-n2cnc3cc(NCc4ccncc4)ccc32)cc1	-1%
Cc1cc(C)cc(OCC(O)CN2C(=O)NC(C)(C)C2=O)c1 (centres undefined)	-3%
O=C1CC(N2CCN(C/C=C/c3ccccc3)CC2)C(=O)N1CCc1ccccc1 (centres undefined)	1%
c1ccc(Nc2nc3ccccc3n3cnnc23)cc1	?
Cc1cc(NC(=O)CSc2ncnc3ccccc23)no1	5%
COc1ccccc1Nc1nc(NCCO)c2ccccc2n1	-6%
CN(C)CCNC(=O)c1cc2cc(Br)ccc2oc1=O	2%
CCCn1c(=O)c2ccccc2n2c(SCCOc3ccccc3F)nnc12	-11%
CCOC(=O)c1ccc(NS(=O)(=O)c2cc(-c3nnnn3C(C)C)ccc2OC)cc1	3%
CCOc1ccc(-c2nnn(CC(=O)N3CCN(c4ccc(OC)cc4)CC3)n2)cc1OCC	-3%
CCOC(=O)C1=C(C)NC(=O)NC1c1ccc(Br)s1 (centres undefined)	-6%
C=CCn1c(COc2cccc3cccnc23)nnc1SCC(=O)O	-12%
Cc1cc(C)nc(Nc2nc3ccccc3[nH]2)n1	5%
COC(=O)C1=C(C)N(Cc2ccccc2)c2c(C(=O)OC)c(C(=O)OC)c(C(=O)OC)c(=O)n2C1c1ccccc1 (centres undefined)	7%&0%[11.4 µM]
COC(=O)C1CCN(c2cc(=O)n(-c3ccccc3Cl)c(=O)[nH]2)CC1	-4%
COc1ccc(N2C(=O)CC(n3c(CCCCO)nc4ccccc43)C2=O)cc1 (centres undefined)	-16%
CCC1(C(=O)O)NC(c2cc(OC)ccc2O)C2C(=O)N(Cc3ccccc3)C(=O)C21 (centres undefined)	5%
Cc1cc(C)n(CCCNC(=O)c2ccc3c(c2)NC(=O)CS3)n1	3%
CCOC(=O)N1CCC(NC(=O)CCc2c(C)nc3ncnn3c2C)CC1	4%
O=C(Cc1cccs1)N1CCN(c2nc(-c3ccc(Cl)cc3)cs2)CC1	-17%
Cc1cccc(C)c1NC(=O)CCCSc1nnc(-c2ccco2)o1	-14%
O=C(O)Cn1nc2ccccc2n1	5%
COC(=O)C1=C(C)NC(C)=C(C(=O)OC)C1c1ccccn1	?
O=S(=O)(c1ccc(S(=O)(=O)N(Cc2cccs2)CC2CCCO2)cc1)N1CCCCC1 (centres undefined)	-6%
O=C(O)c1cccc(N2C(=O)c3cccnc3C2=O)c1	-4%
COc1ccc(CCNC(=O)CSc2nnc(Cc3csc(N)n3)n2C)cc1OC	6%
COc1ccc(CCNC2CC(=O)N(CCc3ccc(OC)c(OC)c3)C2=O)cc1OC (centres undefined)	3%
COc1ccc(N2C(=O)CC(Sc3nc(C)c4c(n3)CCCC4)C2=O)cc1 (centres undefined)	-7%
CN(C)c1nc(-c2cccc(NS(C)(=O)=O)c2)nc2ccccc12	3%
COc1ccc(C(C(=O)NC2CCCCC2)N2CCC3(CC2)OCCO3)cc1 (centres undefined)	17%
COC(=O)c1sc(S(=O)(=O)N2CCC(C)CC2)c(C(=O)OC)c1C	-4%
CCCOc1ccc2c3c(c(=O)oc2c1OCCC)CCC3	13µM*
COC(=O)NC(CC(C)=O)c1ccc(F)cc1 (centres undefined)	1%[11.4 µM]
N#Cc1c(N)nc2c(c1-c1cccnc1)CCCCC2	?
O=C(C1COc2ccccc2O1)N1CCN(Cc2ccc3c(c2)OCO3)CC1 (centres undefined)	6%
CC(=O)N(Cc1cc2ccc(C)c(C)c2n2nnnc12)C1CCCC1	13%
O=C(O)C1CC(=O)N(c2ccc(F)cc2)C1 (centres undefined)	12%
CCOC(=O)CCCNC(=O)CCNC(=O)c1ccc(OCC)cc1	11%
Cc1ccc(Cl)cc1N1CCN(S(=O)(=O)c2ccc3c(c2)oc(=O)n3C)CC1	6%
Cn1c(N)c(C(=O)COC(=O)c2cc(C(F)(F)F)nc3ccccc23)c(=O)n(C)c1=O	-12%
O=c1n(Cc2cc3c(cc2Cl)OCO3)c(=O)n2n1CC[C@H]1/C(=N\OCc3ccccc3)[C@H]3O[C@@H]3[C@@H](O)[C@@H]12	1%[11.4 µM]
Cc1cc(C)n(-c2ccc(C(=O)Nc3ccc(S(=O)(=O)NCc4ccco4)cc3)cc2)n1	?
CC1Cn2c(COc3ccccc3)nnc2S1 (centres undefined)	2%
CC(=O)NC(CC(C)C)C(=O)NC(Cc1ccccc1)C(N)=O (centres undefined)	3%
C=CC[C@@H]1C=C[C@@H](O/N=C\c2ccc(C(=O)N3[C@H](c4ccc(C)cc4)[C@@H](C)CC[C@H]3C(=O)OC)cc2)[C@@H](CO)O1	0%[11.4 µM]
O=C(NCc1cn2ccccc2n1)c1ccccc1	-18%
O=C(O)[C@@H]1CCCN1Cc1cc2ccccc2c2ccccc12	7%[11.4 µM]
O=C(C1CCCCC1)N1CCN(C(=O)C2CCCCC2)CC1	-7%
CCOC(=O)CNC(=O)CSc1nc(NCc2ccccc2)nc(N(C)C)n1	2%
CCCOc1ccc(N)cc1N	-11%
Cc1nnc(NC(=O)Cc2ccc(OCc3c(C)noc3C)cc2)s1	-2%
O=C(CC1COc2ccccc2O1)Nc1ccccn1 (centres undefined)	1%
COc1ccc(C)cc1NC(=O)c1cc2c(CO)cnc(C)c2oc1=N	10%
CCOc1ccc(N(CC(=O)NCc2ccco2)S(C)(=O)=O)cc1	1%
CCCCn1c(SCC(=O)N2CCCC2)nc2c1c(=O)n(C)c(=O)n2C	10%
COc1cccc(CN2CCN(C(=O)c3cccc(F)c3)CC2)c1	-3%

Going on with the list.
compound	HSD17B inhib
CCc1ccc2c(O)c3c(cc2c1C(=O)OC)C(=O)c1c(O)ccc(O)c1C3=O	?
CCOC(=O)c1c(C)oc2c1c(C=NCc1ccccn1)c(O)c1ccccc12	-11%
CCCC(=O)Nc1cc(C)c(NC(=O)Cc2ccccc2)cn1	7%
Oc1c(CN2CCOCC2)cc(COCc2ccccc2)c2cccnc12	13%
Cc1onc(-c2ccccc2Cl)c1C(=O)NCC1CCCO1 (centres undefined)	15%
CC(C)Oc1ccccc1C1CC(=O)Nc2cc3c(cc21)OCCO3 (centres undefined)	-11%
Cc1cccc(OCCCC(=O)Nc2ccc3c(c2)OCO3)c1	7%
